Screening data (PubChem BioAssay)
HPGD block: blocks human HPGD enzyme activity; hit rate 4.3% among 150,000; purified HPGD, NADH fluorescence kinetic, PGE2 substrate; Potency, µM, for the others: at the top dose activity change, negative = inhibition, actives largely listed as inhibitors; AID 894; active = well fitted inhibition curve with a large enough effect (not every such curve was filed as active); inconclusive = small, poorly fitted or top-dose-only effect, or another doubt; inactive = no such curve, though single readings can be large or run the other way;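 further: top concentration of the series not given in the record; plate controls included wells without enzyme; inactives centre near -10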
Target sequence (P15428 whole entry, looked up): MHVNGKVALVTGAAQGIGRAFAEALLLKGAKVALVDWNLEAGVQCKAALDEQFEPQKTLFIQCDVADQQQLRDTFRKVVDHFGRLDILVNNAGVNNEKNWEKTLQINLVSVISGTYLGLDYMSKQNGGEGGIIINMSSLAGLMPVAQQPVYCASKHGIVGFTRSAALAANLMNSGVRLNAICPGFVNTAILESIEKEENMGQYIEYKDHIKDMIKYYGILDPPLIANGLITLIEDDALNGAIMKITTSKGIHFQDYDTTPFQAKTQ
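NADH formation kinetics: reaction with 30 uM PGE2 and 1 mM NAD+ (final), 20 nM enzyme, Tris-HCl pH 8 with Tween 20, after 15 min compound preincubation at room temperature. Fluorescence change, last versus first of five reads.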
* hit, by the source's call; ? = inconclusive. On the % scale 0 is the no-effect control and ±100 the full control effect; potency means the concentration at half of the fitted maximal effect.

SMILES | HPGD block
C[C@@]1(O)C(O)[C@@H](CO)O[C@H]1n1cnc2c(NC3CCCC3)nc(Cl)nc21 (stereo not given in full) | -19.2%
c1ccc2c(c1)nc1n2CCN1CCNC1CCCCC1 | -10.7%
Cc1[nH]c(N)nc(=S)c1CCC(=O)O | -11.4%
Nc1nc(SCC(=O)c2ccc(Oc3ccccc3)cc2)n[nH]1 | -29.8%
C=C1CCO[C@@]2([C@H](O)[C@@](C)(O)CO)NC(=O)[C@]1(O)NC2=O | -8.3%
O=C(CN1CCN(c2ccc(F)cc2)CC1)Nc1cccc(C(F)(F)F)c1 | -9.1%
CCN1CCc2c(C#N)c(NCc3ccccc3)nc(NCCO)c2C1 | -22.3%
Cc1cccn2c(=O)c(C=NCc3ccco3)c(Nc3ccc(SC(F)F)cc3)nc12 | -6.1%
COC(=O)N1CC(c2ccccc2)CC1=O (stereo not given) | 3.5%
Cc1cccc(Cn2c(=O)c3c(nc4n3CCN4Cc3ccco3)n(C)c2=O)c1 | ?
COCCNC(=O)c1ccc(N2CCC3(CC2)OCCO3)c([N+](=O)[O-])c1 | -17.4%
CCc1nc(SCCO)c2oc3ccccc3c2n1 | -1.8%
Cc1ccc(C2=CC(c3ccc(N(C)C)cc3)n3nnnc3N2)cc1 (stereo not given) | -19.7%
COc1ccc2oc3cc(C)[n+]([O-])c(-c4ccc(Cl)cc4)c3c2c1 | -9.9%
Cc1cccc(-n2[nH]c3c4c(ccc3c2=O)C(=O)c2ccccc2C4=O)c1 | -11.1%
Cc1nn(C)c(C)c1S(=O)(=O)N(CC(=O)Nc1nccs1)c1ccc(C(C)C)cc1 | -1.2%
CCOc1cc2[nH]c(=O)n(CC3CCC(C(=O)NCCCOC)CC3)c(=O)c2cc1OCC (stereo not given) | ?
O=C(c1cnccn1)N(c1ccccc1)C1(C(=O)NC2CCCC2)CCCCC1 | 9.6%
COc1cccc(CNC(=O)Cc2ccc(Br)cc2)c1 | -10.7%
[Cu].[NH-][C@H](CC(=O)O)C(=O)O.[NH-][C@H](CC(=O)O)C(=O)O | -7.2%
C=C1CCC(O)C/C1=C/C=C1\CCC[C@@]2(C)C(C(C)/C=C/C(C)C(C)C)CC[C@@H]12 (stereo not given in full) | -3.8%
Cc1ccc(N(C(C)C(=O)N2CCC(C)CC2)S(C)(=O)=O)cc1C (stereo not given) | -9.5%
O=[N+]([O-])c1cccc(-c2nnc3ccc4ccccc4n23)c1 | -18.2%
CN(c1ccc(C(=O)Nc2ccc3c(c2)OCCO3)cc1)S(C)(=O)=O | -10.8%
Cc1c(C(=O)N2CCc3ccccc32)cnn1C | -6.0%

For reference, 6 of the compounds above.
SMILES | HPGD block
Cc1nn(C)c(C)c1S(=O)(=O)N(CC(=O)Nc1nccs1)c1ccc(C(C)C)cc1 | -1.2%
CCOc1cc2[nH]c(=O)n(CC3CCC(C(=O)NCCCOC)CC3)c(=O)c2cc1OCC (stereo not given) | ?
O=C(c1cnccn1)N(c1ccccc1)C1(C(=O)NC2CCCC2)CCCCC1 | 9.6%
COc1cccc(CNC(=O)Cc2ccc(Br)cc2)c1 | -10.7%
[Cu].[NH-][C@H](CC(=O)O)C(=O)O.[NH-][C@H](CC(=O)O)C(=O)O | -7.2%
C=C1CCC(O)C/C1=C/C=C1\CCC[C@@]2(C)C(C(C)/C=C/C(C)C(C)C)CC[C@@H]12 (stereo not given in full) | -3.8%

Continuation:
SMILES | HPGD block
CCNC(=O)CCSc1nnc(-c2ccco2)o1 | -2.4%
CCn1cc([N+](=O)[O-])c(C(=O)Nc2nc(-c3ccc(C)cc3)c(C)s2)n1 | ?
O=C(O)C1CCCCC1C(=O)NCCCc1ccccc1 (stereo not given) | -2.0%
Cc1cc(C)c(NC(=O)COC(=O)CSc2ccc(Br)cc2C)c(C)c1 | 1.9%
CC(C)(C)C(=O)NC(=S)Nc1ccc(F)cc1 | -12.6%
O=C(CCNS(=O)(=O)c1ccc2c(c1)CCC(=O)N2)NCc1ccc2c(c1)OCO2 | -6.3%
CC(C)CCCC(C)C1CCC2C3C(=O)C=C4CC(O)CC[C@@]4(C)C3CC[C@@]12C (stereo not given in full) | -9.6%
O=C(C1CCN(S(=O)(=O)c2cccc3cccnc23)CC1)N1CCc2ccccc21 | -7.0%
COc1ccc(-n2c(=O)cnc3cnc(Nc4ccccc4)nc32)cc1 | -4.0%
COc1cc2c(cc1NC(=O)c1cccc([N+](=O)[O-])c1C)oc1ccccc12 | -11.8%
COc1ccc(-n2nnc3c(=O)n(CC(=O)N4CCCc5ccccc54)cnc32)cc1 | ?
Cc1cccc(Nc2ncnc3nc[nH]c23)c1 | -13.4%
CCCN1Cc2cccc(C(=O)N3CCN(c4ccccc4)CC3)c2C1=O | -14.9%
COc1cccc(NC(=O)COC(=O)c2c3c(nc4ccccc24)CCC(C)C3)c1 (stereo not given) | -18.9%
Cc1nc(Nc2ccc(Cl)c(Cl)c2)sc1C(=O)Nc1ccccc1 | -11.9%
CCOC(=O)c1cc(-c2ccccc2)sc1NC(=O)CN1C(=O)NC(CC)(c2ccc(F)cc2)C1=O (stereo not given) | -24.4%
CC(=O)/C(=N\Nc1ccccc1)Sc1nnc(-c2ccccc2)n1-c1ccccc1 | -21.6%
O=C(OCc1c(Cl)cccc1Cl)c1ccncc1 | -8.1%
CCN(CC(=O)NCCc1ccc(S(N)(=O)=O)cc1)Cc1nc2cc(OC)c(OC)cc2c(=O)[nH]1 | -14.3%
C/C(CC(=O)NCc1ccco1)=N\NC(=O)Cc1cccc2ccccc12 | -11.4%
CC(=O)N(c1c(C)n(C)n(-c2ccccc2)c1=O)C1(C(=O)NC2CCCCC2)CCCCC1 | 4.8%
Cc1ccccc1S(=O)(=O)Cc1ccc(C(=O)NCCCN2CCN(C)CC2)o1 | ?
COC(=O)C(C)N(C(=O)c1ccc(C(=O)c2ccccc2)cc1)c1c(C)cccc1C (stereo not given) | -8.3%
COn1c(=O)c(-c2ccc(Cl)cc2)[n+]([O-])c2ccccc21 | -20.7%
Cc1ccc(CN2CN(S(=O)(=O)c3cccs3)c3nc4ccccc4nc32)cc1 | -21.6%

Ordered by SMILES length (largest number first): part of the list above.
SMILES | HPGD block
CCN(CC(=O)NCCc1ccc(S(N)(=O)=O)cc1)Cc1nc2cc(OC)c(OC)cc2c(=O)[nH]1 | -14.3%
O=C(C1CCN(S(=O)(=O)c2cccc3cccnc23)CC1)N1CCc2ccccc21 | -7.0%
Cc1ccc(CN2CN(S(=O)(=O)c3cccs3)c3nc4ccccc4nc32)cc1 | -21.6%
COn1c(=O)c(-c2ccc(Cl)cc2)[n+]([O-])c2ccccc21 | -20.7%
CCCN1Cc2cccc(C(=O)N3CCN(c4ccccc4)CC3)c2C1=O | -14.9%
COc1ccc(-n2c(=O)cnc3cnc(Nc4ccccc4)nc32)cc1 | -4.0%

(further entries)
SMILES | HPGD block
Cc1cc(=O)oc2cc3c(cc12)OCCN3 | ?
COCc1cc(/C=N\NC(=O)COc2ccccc2)ccc1OC | -5.7%
NS(=O)(=O)c1ccc(N=Nc2ccc[nH]c2=O)cc1 | ?
O=C(c1ccccc1)N1CCN(CC2CC=CCC2)CC1 (stereo not given) | 6.4%
CCOC(=O)c1c(/N=C/c2ccc(C)cc2O)sc2c1CCC2 | -2.1%
Oc1ccccc1/C=N/Nc1cc(N2CCCC2)nc(N2CCCC2)n1 | -5.0%
CCn1c(C)nc2cc(C(=O)NNC(=S)Nc3ccccc3Cl)ccc21 | -25.1%
CSC1=NSC2=NC(=O)/C(=C/c3coc4ccccc4c3=O)C(=N)N12 | ?
O=C(Nc1nccs1)C1CCN(S(=O)(=O)c2cccnc2)CC1 | -7.0%
COC(=O)/C(=C\Nc1ccc(Cl)cc1Cl)NC(=O)c1ccc(Cl)cc1Cl | -14.5%
CCCc1cc(=O)[nH]c(SCC(=O)NC2CCCCC2)n1 | -2.0%
COc1ccc(-c2ccc(=N)n(CCCC(=O)O)n2)cc1 | -18.8%
O=C(c1cc2ccccc2cc1OCC(O)CN1CCCCC1)N1CCCCC1 (stereo not given) | 11.2µM*
Brc1c(OCCOCCn2cncn2)ccc2ccccc12 | -26.4%
COc1cc(NC(=O)Cn2c(-c3cncs3)nc3ccccc32)cc(OC)c1OC | ?
O=C(O)CCn1cc(/C=C2/NC(=S)N(c3ccccc3)C2=O)c(-c2ccccc2)n1 | -14.8%
O=C(Nc1ccccc1)Nc1nnc(Cc2ccc([N+](=O)[O-])cc2)s1 | -11.6%
COc1cc(/C=N\n2nnnc2N)ccc1OCc1ccc(F)cc1 | ?
Cc1cc(C)cc(OCC(=O)Nc2cccc(C(=O)O)c2)c1 | -18.7%
Cc1ccc(OCC(=O)N(Cc2ccc(N(C)C)cc2)C2CCS(=O)(=O)C2)cc1 (stereo not given) | -11.3%
OC[C@H]1O[C@@H](n2cnc3c(N[C@H]4CC5CCC4C5)ncnc32)[C@H](O)[C@@H]1O (stereo not given in full) | -25.0%
Cc1ccc(NC(=S)NN2CCN(C)CC2)c(C)c1 | -5.7%
COc1ccccc1N(CN1CCCC1=O)C(=O)c1ccccc1F | 1.4%
Cc1ccc(C)c(-n2c(SCC(=O)Nc3nonc3C)nnc2-c2ccoc2C)c1 | -28.6%
N=C(N)c1ccc(N=Nc2c(O)ccc3c2[nH]c2ccccc23)cc1 | -1.2%
Continued.
SMILES | HPGD block
N#Cc1ccc(NC(=O)COC(=O)C2=COCCO2)cc1 | -8.4%
OC1CC(c2ccco2)NC2(CCCCC2)C1 (stereo not given) | -10.8%
Cc1c(C(=O)NCc2cccnc2)oc2ccc(S(=O)(=O)N3CCCCCC3)cc12 | -10.0%
COC(=O)c1c(NC(=O)CC2Sc3ccc(C(F)(F)F)cc3NC2=O)sc(C)c1C (stereo not given) | -12.3%
CSc1nnc(Cn2c(=O)sc3ccccc32)n1-c1cccc(Cl)c1 | -16.1%
CC(C)CC(=O)OCC(=O)Nc1ccccc1Sc1ccccc1 | -4.4%
CN1CCN(CC(=O)N(C)c2nc(-c3ccccc3)cs2)CC1 | -5.6%
COc1ccc2nc(SCC(=O)Nc3ccc(S(=O)(=O)Nc4nccc(C)n4)cc3)[nH]c2c1 | 28.2µM*
CC(C)(C)NC(=O)CSc1nnc(CN2CCCCCC2=O)n1-c1ccccn1 | -4.5%
O=C(CN1C(=O)NC2(CCCCCCC2)C1=O)NC1CCCc2ccccc21 (stereo not given) | -8.6%
COc1cccc(CNCCc2c[nH]c3ccccc23)c1OCc1ccccc1F | -4.5%
N#Cc1ccsc1NC(=O)CN1CCN(S(=O)(=O)c2ccc3ccccc3c2)CC1 | -18.1%
Cc1ccc(OCCn2cc(/C=C3\C(=O)NN(c4ccccc4)C3=O)c3ccccc32)cc1 | -14.4%
COc1ccc(N2CCN(Cc3cc4c(cc3O)CCC4)CC2)cc1 | -12.8%
Cc1ccccc1NC(=O)Nc1ccccc1Br | -6.4%
CCOC(=O)CSc1ncc(-c2ccc([N+](=O)[O-])cc2)[nH]1 | -8.5%
Cc1ncc(CO)c2c1OC(C)(C)OC2 | -10.1%
c1ccc(Nc2ncnc3sc4c(c23)CCC4)cc1 | ?
C=CCn1c(SCC(=O)Nc2ccc3c(c2)OCO3)nnc1-c1cc(Br)ccc1O | -14.0%
COc1ccc(-n2c(=O)c(CCc3ccccc3)nc3cnc(N(C)C)nc32)cc1 | -7.6%
CC(C)NC(=O)C1CCCN(S(C)(=O)=O)C1 (stereo not given) | -5.3%
CC(C)CCn1c(=S)[nH]c2ncccc2c1=O | -9.4%
COc1ccc(CC(=O)Nc2cccc(C(=O)O)c2C)cc1 | -10.8%
O=C(NCc1ccco1)c1nc(-c2ccccc2)n(-c2ccccc2)n1 | -12.8%
Cc1cc(C)n(-c2ccc(Cl)c(C(=O)Nc3cc(C(F)(F)F)ccc3Cl)n2)n1 | -18.5%
Next part:
SMILES | HPGD block
Cc1ccnc(N2CCC(C(=O)NCc3ccc4c(c3)OCO4)CC2)n1 | -19.6%
CC1CCCCN1c1nnc(NC(=O)c2cc(-c3ccc(Br)cc3)on2)s1 (stereo not given) | -8.7%
CCOC(=O)c1[nH]c(C)c(C(=O)Nc2ccccc2F)c1C | -15.5%
Cc1noc(NS(=O)(=O)c2ccc(NC(=O)COc3ccccc3)cc2)c1C | 0.2%
COc1cccc(-c2nnc3sc(C4CCCCC4)nn23)c1 | -27.9%
CN1CCN(CCC(=O)Nc2ccc(F)c(F)c2)CC1 | 1.1%
Cc1nc(SCC(=O)Nc2c(C)n(C)n(-c3ccccc3)c2=O)nc(C)c1C | -0.6%
O=C(NC(=S)Nc1nc2c(s1)CCCC2)c1ccc(C(=O)c2ccccc2)cc1 | -22.9%
O=C(NCCN1CCN(c2ccccc2)CC1)C1CCCN(S(=O)(=O)c2cnc[nH]2)C1 (stereo not given) | -13.3%
FC(F)(F)c1cc(-c2cccs2)nc(NCc2ccco2)n1 | -10.7%
O=C1c2ccccc2C(=O)N1Cc1nc2ccccc2c(=O)n1Cc1ccco1 | -2.5%
c1ccc(-c2nc3ccccc3nc2-c2ccccn2)nc1 | -14.5%
Nc1ccccc1S(=O)(=O)c1ccccc1N | -6.9%
Cc1cc(C(=O)OCC(=O)c2c(N)n(C)c(=O)n(C)c2=O)c(C)n1-c1ccccc1 | -14.3%
O=C(NC1CCCC1)C(c1ccccn1)N(C(=O)c1csnn1)C1CCCC1 (stereo not given) | -2.5%
CCN1CCCC1CNC(=O)c1ccc2c(=O)n(CCOC)c(=O)[nH]c2c1 (stereo not given) | -27.8%
CCNc1nc2c(c(=O)[nH]c(=O)n2C)n1CC(C)C | -11.9%
CC1(C)N=C(N)NC(Nc2ccccc2)=N1 | -8.8%
Cc1ccc(/C(CSc2nccn2-c2ncc(C(F)(F)F)cc2Cl)=N\O)cc1 | -12.2%
N#CCCN1CCN(S(=O)(=O)c2ccc(S(=O)(=O)NCc3ccccc3)cc2)CC1 | -6.1%
O=C(O)C1CCCCC1C(=O)NCc1ccccc1 (stereo not given) | -8.2%
CCN(CCCNC(=O)CN1C(=O)COc2ccccc21)c1ccccc1 | 0.8%
COc1ccc(C(=O)C(C)Oc2cccc(NC(=O)c3cccc([N+](=O)[O-])c3)c2)cc1 (stereo not given) | -17.3%
C=CCNC(=O)c1onc(CSc2ccc(F)cc2)c1C(=O)O | -10.6%

The list is partial, so the mix of outcomes need not match the whole.
